RE007 growth inh: less growth of the S. pombe RE007 Vpr strain | AID 651644 | actives 0.21% (n = 360,000) | S. pombe RE007 Vpr strain, BacTiter-Glo ATP luminescence, 24 h; control for the full effect not named in the record | Potency, µM (highest dose often 92.2 µM), for inactives: at the highest dose activity change, negative = less growth; active = well fitted falling curve with a large enough effect; inconclusive = small, poorly fitted or top-dose-only effect; inactive = no such curve, though single readings can be large or run the other way;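 also: % is scaled to controls: 0 for no effect and ±100 for the full control effect; nearly all actives have a fitted effect of over 50% in size; the assay follows cell death caused by Vpr and the record does not say whether a fall means rescue or toxicity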
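Fission yeast RE007 carrying one integrated HIV-1 vpr copy, seeded at OD 0.01 in PMG+AL medium with 23 nL pinned compound. Grown 24 h at 30 degrees; viability read by BacTiter-Glo luminescence after 5 min.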
2A StopGo: FMDV 2A StopGo reporter, luciferase signal | human cells with a luciferase reporter of 2A StopGo recoding; control for the full effect not named in the record | Potency, µM (top dose mostly 57.9 µM), for the others: top-dose signal change, negative = less light | actives 1.2% (n = 410,000); active = well fitted falling curve with a large enough effect; inconclusive = small, poorly fitted or top-dose-only effect; inactive = no such curve, though single readings can be large or run the other way; tested in HEK293T cells; also: % is scaled to controls: 0 for no effect and ±100 for the full control effect; nearly all actives have a fitted effect of over 45% in size; luciferase light after 4 h
SARS PLP yeast: inhibitors of SARS-CoV papain-like protease in yeast | actives 0.19% (n = 330,000) | S. cerevisiae expressing SARS-CoV PLpro, growth rescue; control for the full effect not named in the record | Potency, µM (top dose mostly 32.9 µM), for the others: at the top dose activity, positive = growth rescue | AID 485353; active means well fitted rising curve with a large enough effect; inconclusive means small, poorly fitted or top-dose-only effect; inactive means no such curve, though single readings can be large or run the other way; also: 0% is about no effect; nearly all actives have a fitted effect of over 55% in size; growth read by luminescence after 48 h
NS1 function inh: influenza NS1 inhibition; actives 0.4% (n = 270,000); S. cerevisiae slowed by influenza A NS1, growth recovery by OD600; Potency, µM (doses to about 46.1 µM), for the others: at the highest dose activity, positive = more growth; active means well fitted rising curve with a large enough effect; inconclusive means small, poorly fitted or top-dose-only effect; inactive means no such curve, though single readings can be large or run the other way; also: nearly all actives have a fitted effect of over 50% in size
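Recovery from NS1-induced slow growth read by OD600 in budding yeast switched to galactose assay medium (pH 6.0, -URA) at 1:100 dilution. Compound 23 nl per well; the matching strain lacking NS1 serves as control.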
Marburg entry inh: blocks Marburg virus binding to or entry into cells; actives 1.8% (n = 300,000); AID 540276; Potency, µM (top dose mostly 37.8 µM), for inactives: top-dose activity change, negative = inhibition, actives largely listed as inhibitors; Marburg virus pseudotyped entry inhibition, cell reporter; control for the full effect not named in the record; about a third of the inactives were read at about 46 µM; active = well fitted inhibition curve with a large enough effect; inconclusive = small, poorly fitted or top-dose-only effect, or effect the other way; inactive = flat fitted curve, though single readings scatter; tested in HEK293 cells; about a fifth of its hits are not listed in these tables; also: % is scaled to controls: 0 for no effect and ±100 for the full control effect; luciferase read-out
LASV entry inh: blocks Lassa virus binding to or entry into cells; Lassa virus pseudotype entry inhibition, cell reporter; control for the full effect not named in the record; Potency, µM (series often up to 37.9 µM), inactives show at the top dose activity change, negative = inhibition, hits mostly inhibitors; actives 1.2% (n = 300,000); AID 540256; active means well fitted inhibition curve with a large enough effect; inconclusive means small, poorly fitted or top-dose-only effect, or effect the other way; inactive means flat fitted curve, though single readings scatter; tested in HEK293 cells; also: % is scaled to controls: 0 for no effect and ±100 for the full control effect; nearly all actives have a fitted effect of over 50% in size; luciferase read-out
Cruzain Triton: inhibitors of Trypanosoma cruzi cruzain with detergent; P25779; purified cruzain, Z-FR-AMC fluorescence, 0.01% Triton; Potency, µM, inactives show max response, negative = inhibition, hits mostly inhibitors; actives 0.43% (n = 200,000); AID 1478;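 also: plate controls were neutral wells for no effect and buffer without enzyme for full effect; nearly all actives have a fitted effect of over 40% in size; top concentration of the series not given in the record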
Target sequence (P25779 123-467 limits assumed): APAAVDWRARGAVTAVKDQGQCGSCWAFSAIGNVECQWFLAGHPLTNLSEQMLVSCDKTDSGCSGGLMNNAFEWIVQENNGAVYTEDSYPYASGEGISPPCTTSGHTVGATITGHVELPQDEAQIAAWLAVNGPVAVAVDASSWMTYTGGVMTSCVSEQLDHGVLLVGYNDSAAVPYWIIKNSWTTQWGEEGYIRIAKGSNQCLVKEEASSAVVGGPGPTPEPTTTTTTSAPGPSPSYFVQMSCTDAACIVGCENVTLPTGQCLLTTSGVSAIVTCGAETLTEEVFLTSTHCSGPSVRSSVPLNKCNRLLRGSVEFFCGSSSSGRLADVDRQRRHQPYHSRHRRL
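Purified cruzain (1.5 nM final) was preincubated with compounds for 15 min at room temperature in 100 mM sodium acetate pH 5.5, 5 mM DTT, 0.01% Triton X-100. Reaction started with 2 uM Z-FR-AMC; AMC fluorescence change over 60 s gave activity.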
Cruzain noTriton: blocks cruzain activity in detergent-free assay | actives 2.3% (n = 200,000) | purified cruzain, Z-FR-AMC fluorescence, no detergent | Potency, µM, without a hit: max response, negative = inhibition, hits mostly inhibitors | AID 1476 | P25779;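 also: plate controls were enzyme without inhibitor for no effect and buffer without enzyme for full effect; nearly all actives have a fitted effect of over 40% in size; top concentration of the series not given in the record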
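Detergent-free condition (0.00005% Triton X-100) in acetate buffer pH 5.5 with DTT. 1.5 nM enzyme and compound were pre-mixed 15 min, then 2 uM Z-FR-AMC substrate added; reaction progress from fluorescence change between first and third reads (60 s).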
The depositor's hits bear a star; ? = inconclusive; . = not tested or not shown; & = joins results of further samples; [ ] = remark or other dose. Unless noted, calls follow the shape of the dose curve; as a rule, active = well fitted curve in the direction sought with a large enough effect; inconclusive = small, poorly fitted or top-dose-only effect, or another doubt; inactive = no such curve, though single readings can be large; an effect the other way counts as inactive or inconclusive. Potency is read from the fitted curve at half-maximal effect.

SMILES	RE007 growth inh	2A StopGo	SARS PLP yeast	NS1 function inh	Marburg entry inh	LASV entry inh	Cruzain Triton	Cruzain noTriton
COC(=O)C1=C(C)N(c2ccc(C)c(C)c2)/C(=C/c2cccs2)C1=O	-6%	3%	4%	?	-1%	4%	-5.0%	1%
COc1ccc(C2CC(C(F)(F)F)n3nc(C(=O)NCc4c(C)nn(C)c4C)c(Cl)c3N2)cc1 (centres undefined)	-5%	.	-4%	-11%	10µM*	-38%	-4.1%	?
CCCC(C(=O)NC1CCCC1)N(C(=O)c1snc(C(N)=O)c1N)c1ccc(OCC)cc1 (centres undefined)	18%	-23%	2%	7%	?	.	.	.
CCCCNC(=O)CSc1nc(COc2ccccc2)nc2ccccc12	16%	0%	-1%	2%	-14%[46.1 µM]	18%	.	.
O=C(CN1CCN(Cc2ccccc2)CC1)N/N=C/c1ccccc1F	41%	8%	0%	0%	19%[46.1 µM]	27%	.	.
Cc1ccccc1NC(=O)c1c(F)c(F)c(F)c(F)c1F	-2%	-2%	1%	3%	-19%	-32%[14.3 µM]	2.6%	0%
CC(C)(CCO)NC(=S)NC1CC2C=CC1C2 (centres undefined)	-3%	-14%	1%	9%	?	5%	.	.
COCCNC(=O)/C(C#N)=C/c1c(N2CCN(c3ccc(OC)cc3)CC2)nc2c(C)cccn2c1=O	-17%	16%	0%	3%	?	-20%[46.1 µM]	.	.
COc1ccc(NC(=O)CSc2nnc(-c3ccc(C)cc3)o2)cc1	.	-6%	.	.	.	22%[46.1 µM]	0.2%	4%
Cc1cc(C)cc(NC(=O)Cn2c(=O)oc3cc(S(=O)(=O)N4CCCC4)ccc32)c1	.	-22%	.	.	-27%[46.1 µM]	1%[46.1 µM]	-0.2%	27%
Cc1cc(N2CCCC2=O)cc(C)c1S(=O)(=O)NCCOc1ccc(C(C)(C)C)cc1	12%	?	-9%	24%	?	12µM*	-9.3%	?
COc1ccccc1-c1cc(-c2ccccc2)nc(SC(C(N)=O)c2ccccc2)c1C#N (centres undefined)	7%	-16%	6%	?	15µM*	?	4.9%	7.9µM*
COC(=O)CCNC(=O)Cc1ccc(S(=O)(=O)N2CCCCC2)s1	5%	-7%	1%	.	-6%[46.1 µM]	0%	.	.
O=C(CSc1nnc2scc(-c3ccccc3)n12)N1CCN(Cc2ccccc2)CC1	-11%	-15%	-3%	-5%	15%	-16%	-4.8%	-9%
O=c1c(-c2ccc3c(c2)OCCO3)c(C(F)(F)F)oc2cc(O)cc(O)c12	?	?	-29%	-14%	-9%&-9%	3%	-12%	?
Cc1ccc(NC(=O)C2CCCN2S(=O)(=O)c2cccc3nsnc23)cc1Cl (centres undefined)	.	?	.	.	-3%[46.1 µM]	-2%[46.1 µM]	-0.3%	-1%
Cc1ccc(/C=N/OC(=O)c2c(C)noc2-c2snnc2C)cc1	5%	7%	0%	0%	-1%[46.1 µM]	6%[46.1 µM]	.	.
COc1ccc(N=NC2=C(O)CC(C)(C)CC2=O)c(OC)c1	6%	15%	0%	-2%	13%	13%	-12%	30%
Cc1cc(C)c2ccc3c(C)c(C)n(C)c3c2n1	1%	-15%	-3%	.	-5%[46.1 µM]	-3%[46.1 µM]	.	.
Cc1ccnc(NC(=O)C(C)n2cc([N+](=O)[O-])cn2)c1 (centres undefined)	-5%	-9%	-5%	.	?	20%	.	.
Cc1cc(=O)n2nc(N3CCC(C(=O)NCc4ccccc4F)CC3)sc2n1	5%	0%&-5%	11µM*	9%	-11%&-11%[46.1 µM]	2%[46.1 µM]	-8.9%	6%
CC(=O)N1CCN(c2ccc(NC(=S)NC(=O)COc3ccc(C(C)(C)C)cc3)cc2)CC1	-17%	?	-16%	27%	?	8%	-7.9%	?
COc1ccc(Nc2cc(Nc3ccc(OC)cc3)ncn2)cc1	-2%	14%	-2%	-1%	9%[46.1 µM]	-8%[46.1 µM]	.	.
CCCN1CCN(CC(=O)Nc2nnc(CC)s2)CC1	-7%	-3%	-1%	4%	?	-17%	.	.
COc1ccc(-n2c(=O)c3ccccc3n(CC(=O)NC3CCCC3)c2=O)cc1	3%	0%	-2%	2%	0%	12%	0.4%	3%
Cc1cc(=O)[nH]c(SCC(=O)Nc2ccc(F)c([N+](=O)[O-])c2)n1	17%	-12%	5%	.	-7%[46.1 µM]	.	.	.
Cc1c(O)ccc2c(-c3ccccc3)cc(=O)oc12	1%	-26%	-1%	9%	.	.	.	.
CCN(CC1CCCN(CCc2cccc(OC)c2)C1)C(=O)c1ccoc1C (centres undefined)	-9%	-27%	-2%	9%	-4%	-6%	.	.
Cc1oc2cc([N+](=O)[O-])c(O)c([N+](=O)[O-])c2c1C(=O)c1ccc(Cl)cc1	-4%	-25%	-4%	-46%	.	.	.	.
COC(CN(C)C(=O)C1CCC(CNS(=O)(=O)c2ccccc2)CC1)OC (centres undefined)	6%	-1%	0%	2%	.	.	.	.

The last 2 compounds of the section above are carried over, then new ones follow:
SMILES	RE007 growth inh	2A StopGo	SARS PLP yeast	NS1 function inh	Marburg entry inh	LASV entry inh	Cruzain Triton	Cruzain noTriton
Cc1oc2cc([N+](=O)[O-])c(O)c([N+](=O)[O-])c2c1C(=O)c1ccc(Cl)cc1	-4%	-25%	-4%	-46%	.	.	.	.
COC(CN(C)C(=O)C1CCC(CNS(=O)(=O)c2ccccc2)CC1)OC (centres undefined)	6%	-1%	0%	2%	.	.	.	.
Cc1c(C)n(C)c2ccc(C(=O)NCCc3ccco3)cc12	-18%	47%[activator]	-8%	-13%	.	.	.	.
CCOC(=O)C(NC(C)=O)(Nc1ccc(S(=O)(=O)Nc2ccncn2)cc1)C(F)(F)F (centres undefined)	-13%	1%	-20%	1%	1%[46.1 µM]	-1%	0.7%	-3%
O=c1cc(Cn2ccnc2)c2cc3c(cc2o1)CCC3	-1%	-5%	-3%	-9%	-2%	2%	-4.9%	-5%
Cc1nn(-c2ccccc2)c(Cl)c1/C=C(/CC(=O)O)c1nc2ccccc2s1	-8%	7%	.	.	10%[46.1 µM]	15%[46.1 µM]	.	.
COc1ccc(C(=O)NC2CCN(C(=S)NCc3ccco3)CC2)cc1	0%	.	5%	-7%	21%	4%	3.0%	9%
COc1cccc2cc(-c3nc(-c4ccccc4F)no3)c(=O)oc12	.	?	.	.	.	?	1.0%	30%
Cc1cccc(-n2c(C)n[nH]c2=S)c1C	7%	-3%	.	18%	-1%[46.1 µM]	?	3.6%	-5%
CCOC(=O)c1ccc(NC(=O)c2ccccc2C)cc1	4%	16%	-30%	-46%	?	16%	-1.7%	-12%
COc1ccc(CCN(C(=S)Nc2ccccc2)C2CC(=O)N(c3ccccc3)C2=O)cc1 (centres undefined)	19%	-7%	1%	4%	7%[46.1 µM]	-23%	-3.3%	-3%
Cc1ccc2cc(C=O)c(Cl)nc2c1	-15%	36%[activator]	-4%	.	13%	3%	.	.
CC(=O)[C@@H]1[C@@H]2C(=O)N(c3ccc(F)c(Cl)c3)C(=O)[C@@H]2C2c3ccccc3C=CN21 (some centres undefined)	.	.	14%	15%	.	.	-9.3%	-25%
C=CCN1C(=O)C(CC(=O)Nc2ccc(OCC)cc2)N(Cc2ccccn2)C1=S (centres undefined)	-2%	4%	1%	.	-2%[46.1 µM]	14%[46.1 µM]	.	.
COc1cccc(-n2c(SC)nnc2-c2cnccn2)c1	-3%	-16%	-13%	-4%	0%	9%	2.7%	8%
CC(C)c1nn2c(=O)cc(COC(=O)c3ccc(NC(=O)CCc4ccccc4)cc3)nc2s1	.	-7%	.	.	.	27%[46.1 µM]	1.7%	-8%
CCN(CC)CCOc1nc(C)nc2c1oc1ccccc12	5%	-13%	-3%	0%	8%	9%	0.6%	-8%
Cc1cc(C(=O)NCc2cccnc2)no1	-9%	-12%	-3%	3%	9%	-30%[14.3 µM]	0.3%	0%
C#CCOCOCC#CCN(CC)CC	10%	-2%	-2%	?	0%	-2%	9.8%	1%
O=C(/C=C/c1ccccc1)N(Cc1cccc(Cl)c1)C1CCS(=O)(=O)C1 (centres undefined)	-6%	-17%	1%	-2%	0%[46.1 µM]	1%	.	.
COc1ccc(/C=N/n2cnc3c(sc(=S)n3-c3ccccc3)c2=O)cc1	-8%	-18%	-3%	1%	?	-3%[46.1 µM]	.	.
CCOC(=O)c1ccc(NC(=O)CSc2nc3ncc(Br)c(C)c3[nH]2)cc1	.	-12%	.	.	.	5%[46.1 µM]	-0.5%	-3%
Cc1ccc(-c2ccc(=O)n(Cc3ccc(F)cc3Cl)n2)cc1	-20%	-19%	-3%	-1%	?	?	.	.
COC(=O)c1cc(C(=O)c2ccc(Cl)cc2Cl)cn1C	-5%	-6%	-9%	-17%	-3%	-7%	-1.0%	3%
COc1ccc(Cn2c(O)c(C=Nc3ccccc3)c3ccccc3c2=O)cc1	0%	-12%	13%	15%	14%	?	-5.1%	?
Cc1c(Cl)cccc1NC(=O)c1ccc(C(=O)Nc2cccc(Cl)c2C)cc1	.	-1%	.	.	.	13%[46.1 µM]	-1.0%	1%
CCOC(=O)/C(C#N)=C/c1c(N2CCN(C)CC2)nc2c(C)cccn2c1=O	-7%	-3%	-1%	4%	.	.	.	.

Some of these compounds in order of molecular weight, rising.
SMILES	RE007 growth inh	2A StopGo	SARS PLP yeast	NS1 function inh	Marburg entry inh	LASV entry inh	Cruzain Triton	Cruzain noTriton
Cc1cc(C(=O)NCc2cccnc2)no1	-9%	-12%	-3%	3%	9%	-30%[14.3 µM]	0.3%	0%
O=C(/C=C/c1ccccc1)N(Cc1cccc(Cl)c1)C1CCS(=O)(=O)C1 (centres undefined)	-6%	-17%	1%	-2%	0%[46.1 µM]	1%	.	.
CCOC(=O)c1ccc(NC(=O)CSc2nc3ncc(Br)c(C)c3[nH]2)cc1	.	-12%	.	.	.	5%[46.1 µM]	-0.5%	-3%

Screening results deposited in PubChem BioAssay by National Center for Advancing Translational Sciences (NCATS).
